# Assay outcomes deposited in PubChem BioAssay by National Center for Advancing Translational Sciences (NCATS).
# D2 PAM: potentiates the human D2 dopamine receptor allosterically | actives 0.23% (n = 360,000) | DiscoveRx D2 beta-arrestin cells, luminescence, 90 min; 100% = 57 uM dopamine signal | P14416 | AID 624464 | potentiation, % (no concentration beside the values); active = potentiation of 50% or more; inconclusive = 30% to 50%; inactive = 30% or less;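 further: compound concentration not given in the record; tested on top of an EC20 dose of dopamine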
#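 PathHunter beta-arrestin assay in DiscoveRx D2 cells. Compounds were added with an EC20 of dopamine (50 nM final) for 90 min at 37 deg C. Luminescence was read 1 h after detection reagent, with 57 uM dopamine as the EC100 control.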
# gsp ag: gsp mutant agonism; actives 0.13% (n = 340,000); AID 624287; Potency, µM (titrated, usually from 76.9 µM), for the others: top-dose activation (cAMP increase), usual class: activators; gsp mutant cells, cAMP HTRF, 30 min; control for the full effect not named in the record; active = well fitted activation curve with a large enough effect; inconclusive = small, poorly fitted or top-dose-only effect, or another doubt; inactive = no such curve, though single readings can be large or run the other way; cell line not stated here;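 further: phosphodiesterase inhibitor Ro 20-1724 added with compounds to block cAMP breakdown; potency means the concentration at half of the fitted maximal effect; nearly all actives have a fitted effect of over 60% in size; about a fifth of the inactives were tested at one dose only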
#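 Cells stably selected in G418 were plated at 2000/well, grown 16-24 hr, then given compounds in DMSO with the PDE inhibitor […] (300 uM solution added) for 30 min at 37C; cAMP was read by HTRF.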
# gsp antagonist: antagonists of gsp mutant (McCune-Albright syndrome); gsp-mutant cells, cAMP HTRF, 30 min; control for the full effect not named in the record; Potency, µM (highest dose often 76.9 µM), inactives show top-dose activity change, negative = inhibition, actives largely listed as inhibitors; actives 0.4% (n = 340,000); AID 624288; active = falling curve of any shape with a large fitted effect; inconclusive = falling curve, mostly with a smaller effect; inactive = flat or rising curve; cell line not stated here;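 further: intracellular cAMP measured with PDE inhibitor Ro 20-1724 present during compound exposure; potency means the concentration at half of the fitted maximal effect; on the % scale 0 is the no-effect control and ±100 the full control effect; nearly all actives have a fitted effect of over 65% in size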
#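 HTRF cAMP read-out (cAMP-d2 plus anti-cAMP antibody-K in lysis buffer, 30 min RT). Before lysis, cells are exposed to compounds with […] for 30 min at 37C in DPBS containing Ca/Mg, BSA and Tween 20.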
# D2 ag: agonists of human D2 dopamine receptor (beta-arrestin). actives 0.084% (n = 360,000). DiscoveRx PathHunter D2 beta-arrestin, luminescence, 90 min; 100% = 57 uM dopamine signal. activation, % (concentration not given with the values). P14416; in the data active = activation above about 40%; inconclusive = about 15% to 40%; inactive = below about 15%; further: compound concentration not given in the record; the text of the record calls up to 30% inactive
#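 DiscoveRx PathHunter D2 beta-arrestin cells (2,100/well) attached overnight, then compound-stimulated 90 min at 37 C in HBSS/10 mM HEPES/0.1% Tween-20 buffer; beta-galactosidase complementation read by luminescence after 1 h at ambient temperature. Dopamine 57 uM final (EC100) as control.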
# Six1-Eya2 inh: inhibitors of human Six1/Eya2 interaction. actives 0.56% (n = 360,000). Q15475+O00167. activity change, % (concentration not given with the values). AlphaScreen GST-Six1/His-Eya2 binding, biochemical; hits give low values; control for the full effect not named in the record; in the data active = activity change below about -65%; inconclusive = about -30% to -65%; inactive = above about -30%; further: on the % scale 0 is the no-effect control and ±100 the full control effect
# Target sequence (O00167 whole entry, looked up): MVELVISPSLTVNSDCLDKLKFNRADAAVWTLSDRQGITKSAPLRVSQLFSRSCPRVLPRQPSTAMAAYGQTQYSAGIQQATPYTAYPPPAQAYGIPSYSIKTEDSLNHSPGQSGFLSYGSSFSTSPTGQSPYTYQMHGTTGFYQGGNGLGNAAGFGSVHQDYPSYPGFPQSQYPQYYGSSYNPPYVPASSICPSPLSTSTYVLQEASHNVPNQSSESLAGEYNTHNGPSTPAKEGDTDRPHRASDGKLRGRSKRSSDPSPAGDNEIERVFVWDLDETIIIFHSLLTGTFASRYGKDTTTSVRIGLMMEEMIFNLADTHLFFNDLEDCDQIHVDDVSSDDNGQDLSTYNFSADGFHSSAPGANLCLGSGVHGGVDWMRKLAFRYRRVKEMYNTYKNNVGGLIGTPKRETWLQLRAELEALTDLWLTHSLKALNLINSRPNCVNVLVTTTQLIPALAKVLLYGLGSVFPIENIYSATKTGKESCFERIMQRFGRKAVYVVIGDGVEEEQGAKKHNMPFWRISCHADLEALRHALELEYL
# Target sequence (Q15475 whole entry, looked up): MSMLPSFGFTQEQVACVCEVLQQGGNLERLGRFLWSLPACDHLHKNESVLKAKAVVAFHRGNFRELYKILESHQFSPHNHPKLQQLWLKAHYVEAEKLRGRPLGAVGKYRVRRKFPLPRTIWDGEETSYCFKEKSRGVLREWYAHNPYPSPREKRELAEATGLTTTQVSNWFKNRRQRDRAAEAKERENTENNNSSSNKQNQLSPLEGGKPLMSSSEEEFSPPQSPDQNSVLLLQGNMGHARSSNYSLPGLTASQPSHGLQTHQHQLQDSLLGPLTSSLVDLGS
#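 AlphaScreen luminescence read after one hour at 37 °C in darkness. Pin-transferred compounds met GST-Six1 and His-Eya2 protein (5X stock 250 nM/500 nM) plus glutathione donor and Ni-chelate acceptor beads (5X, 50 ug/mL).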
# CtBP-E1A blk: blocks the CtBP interaction with E1A; activity change, % (concentration not given with the values); AlphaScreen GST-E1A/His-CtBP binding, 1536-well; hits give low values; control for the full effect not named in the record; actives 0.49% (n = 340,000); in the data active means activity change below about -65%; inconclusive means about -30% to -65%; inactive means above about -30%; further: on the % scale 0 is the no-effect control and ±100 the full control effect
#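 Steps: dispense buffer (Tris pH 8.0, NaCl 300 mM, TCEP 1 mM, BSA, Tween 20); add 5X protein mix (GST-E1A, His-CtBP, 125 nM each); pin 23 nL compound; 2 h at 37 °C, dark; add 5X beads (50 ug/mL); 1 h; read.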
# Starred values were filed as active, the others as inactive; ? = inconclusive; . = no result given; [ ] = dose if it differs, or a comment.
SMILES,D2 PAM,gsp ag,gsp antagonist,D2 ag,Six1-Eya2 inh,CtBP-E1A blk
COc1cccc(C2C(C#N)=C(C)NC3=C2C(=O)CC(C)(C)C3)c1 (configuration not stated),5,?,2%,2.0,2,11
Clc1ccc(Cc2ccc(SCc3ccccc3)nn2)c(Cl)c1,-3,-42%[inhibitor],-18%,0.7,56,28
COCCN(C(=O)CSc1nnc(-c2ccccc2F)o1)c1c(N)n(CC(C)C)c(=O)[nH]c1=O,-3,-3%[15.4 µM],-8%,-0.8,-6,6
O=C(NC1CCCC1)c1ccc(CS(=O)(=O)Cc2ccccc2F)o1,-6,1%,10%,2.2,5,.
CCn1cc(CNCc2ccc(OCC(O)CN(C)Cc3ccccc3)cc2)cn1 (configuration not stated),-11,5%[15.4 µM],4%,-0.1,-1,5
COc1ccccc1NC(=O)CCNC(=O)C1CCN(S(=O)(=O)c2ccccc2)CC1,-9,-10%,.,-0.1,1,4
CN(C)c1ccc(/C=N/n2cnn(Cc3ccccc3Cl)c2=S)cc1,0,?,2%,-0.8,-8,-7
CCOc1ncccc1C(=O)Nc1cccc(S(=O)(=O)N2CCOCC2)c1,2,?,17%,0.6,-12,-11
Cc1c(C)c2ccc(OC(C)C(=O)NC3CC(C)(C)NC(C)(C)C3)cc2oc1=O (configuration not stated),-6,2%,7%,1.4,-4,-1
CN(CC(=O)Nc1ccccc1Cl)CC(=O)N(C)c1c(N)n(Cc2ccccc2)c(=O)[nH]c1=O,-11,-3%[15.4 µM],2%,-3.6,-2,-2
CCC(=O)Nc1cc(C)c(NC(=O)CCc2ccccc2)cn1,1,4%,11%,-1.7,13,7
CC(=O)C1=C(O)C(=O)N(c2ccc(Br)cn2)C1c1ccccc1[N+](=O)[O-] (configuration not stated),-6,-5%,-4%,-2.9,0,-5
Cc1ccc(S(=O)(=O)c2nc(-c3ccccc3)oc2NCCN2CCOCC2)cc1,-24,-8%,0%,-1.9,2,3
O=C(c1ccco1)N(CCCN1CCOCC1)c1nc(-c2ccc(Cl)cc2)cs1,-25,-2%,-17%,-0.3,-18,-12
Cc1cc(CN2CCN(CC(=O)Nc3cc(C(F)(F)F)ccc3-n3cncn3)CC2)no1,-9,?,-3%,1.6,6,2
CCC(=O)N1CCc2cc(S(=O)(=O)NC(C(=O)NC3CCCc4ccccc43)C(C)C)ccc21 (configuration not stated),-13,-3%[15.4 µM],3%,-0.4,15,3
CCCCn1c(N)c(N(Cc2ccccc2OC)C(=O)CSCC(=O)Nc2ccc(C)cc2)c(=O)[nH]c1=O,-12,-10%,-3%,0.6,5,8
CCOC(=O)c1sc(=S)[nH]c1C,-6,?,8%,-0.8,1,-3
COCC(=O)N(C)[C@H]1C[C@H]2c3cc(N4CCN(C)CC4)ccc3CCN2C(=O)[C@H]1[C@H](C)O,-4,.,5%,0.4,8,4
CCCN1CCN(C(=O)c2noc3c2COc2ccc(C)cc2-3)CC1,-9,3%,6%,1.8,-7,-5
CS(=O)(=O)N1CCC(C(=O)Nc2ccc(Cl)cc2)CC1,1,-11%,2%,-3.2,-1,.
CC(Oc1ccccc1)C(=O)N1CCC2(CC1)CC(=O)c1ccccc1O2 (configuration not stated),-8,-55%[inhibitor],-17%,0.9,2,-1
COc1ccc(CC(=O)c2ccc(O)cc2O)cc1OC,-5,-17%,-7%,0.1,6,5
Cc1cc(C)c(S(=O)(=O)N2CCCCC2CCNC(=O)C(=O)NCC2CCCO2)c(C)c1 (configuration not stated),-2,16%[15.4 µM],-4%,-3.9,-1,-1
COc1ccccc1OCc1nnc(SCC(=O)N2CCCCC2)o1,-9,-4%[15.4 µM],17%,0.9,0,-9
# Additional records
SMILES,D2 PAM,gsp ag,gsp antagonist,D2 ag,Six1-Eya2 inh,CtBP-E1A blk
O=C(Nc1ccccc1C(=O)N1CCCCC1)c1cccs1,3,28%,6%,-0.8,5,2
CC(/C=N/n1c(-c2cc(C)[nH]n2)n[nH]c1=S)=C\c1ccco1,-11,-11%[15.4 µM],?,2.0,-14,0
C[C@@H]1COC(=O)[C@H](NC(=O)OCC2c3ccccc3-c3ccccc32)C/C=C\C[C@@H](CC(=O)N[C@H](CO)Cc2ccccc2)C(=O)N1,-6,-11%,-10%,-3.5,11,18
CC1/C(=N/O)CC(c2ccco2)NC1c1ccco1 (configuration not stated),-4,?,5%,-1.9,2,8
Cc1ccc(S(=O)(=O)NCCOC(=O)Nc2sc(=S)n(C)c2C)cc1,-31,10%,2%,-2.4,-3,12
COCC(=O)N1CCCC(C)(C(=O)Nc2cccc(Oc3ccccc3)c2)C1 (configuration not stated),-6,.,.,-3.2,4,2
O=C(N/N=C/c1ccccc1)c1cccc2ccccc12,-2,-16%,-1%,5.0,17,2
O=C(NCC1COc2ccccc2O1)C1CCCN(S(=O)(=O)c2cnc[nH]2)C1 (configuration not stated),-11,29%,3%,-4.3,-5,5
O=C(O)/C=C/C(=O)Nc1ccc2c(c1)NC(=O)CO2,-2,29%[15.4 µM],-1%,-3.9,7,9
CCN1C(=NCc2cccc(Cl)c2)N[C@@H](c2cccc(F)c2)C(C(=O)OC)=C1C,-23,.,8%,-2.4,-4,0
Cc1ccc(-c2cc3nc4c(c(=O)n3[nH]2)CCCC4)cc1,-19,-3%,3%,-1.7,-10,1
C[C@H](N=C1NS(=O)(=O)c2ccccc21)C(=O)OCc1cc([N+](=O)[O-])cc2c1OCOC2,-13,-17%[15.4 µM],-2%,0.4,5,0
Cc1ccc(OCc2n[nH]c(=S)n2-c2ccc(C)cc2)cc1,-10,-4%,-13%,5.1,-2,.
CCN1CCN(C(c2ccc(F)cc2)c2nnnn2Cc2ccc3c(c2)OCO3)CC1 (configuration not stated),3,11%[15.4 µM],11%,-7.0,0,-14
Cc1cc(N2C(=O)CCC2=O)n(-c2ccccc2)n1,-2,-5%,9%,-0.1,-7,0
CCOc1ccc(NC(=O)CSc2nc(O)c(C)c(=O)n2-c2ccc(F)cc2)cc1,-1,-1%[15.4 µM],.,-3.0,-5,-13
O=c1[nH]c2ccccc2c2cn(-c3ccccc3)nc12,-7,-4%[15.4 µM],2%,3.3,?,-6
O=c1c2ccccc2sn1-c1cc(S(=O)(=O)N2CCOCC2)ccc1N1CCOCC1,-12,-5%,-15%,-1.3,-4,7
CC1=CC(C)(C(Cl)Cl)C(C)=CC1=O (configuration not stated),-8,-8%,-1%,-0.2,3,-1
COc1ccc(-n2c(N)c(-c3nc4ccccc4n3C)sc2=S)cc1,3,7%,4%,-3.2,-9,-4
COc1ccc(OC)c(NC(=O)c2cc(-c3cc(C)ccc3O)n[nH]2)c1,20,-19%[15.4 µM],-54%,5.3,0,0
CNC(=O)C(=O)Nc1cc2c3c(c1)C(C)C(=O)N3CCC2 (configuration not stated),-4,4%,0%,-1.4,5,.
CC1CN(C)C(C)C/C1=N/Oc1ccccc1[N+](=O)[O-] (configuration not stated),-11,-1%,0%,6.7,-8,-15
COc1ccc(N2CCN(C(CNC(=O)C(=O)NCC3CCCO3)c3ccco3)CC2)cc1 (configuration not stated),3,-20%,7%,-8.0,-9,1
Cc1ccc(C)c(N2N=C(C(=O)OCc3nnc(-c4cccs4)o3)CCC2=O)c1,-37,?,-7%,-7.2,-10,-4
# New compounds follow.
SMILES,D2 PAM,gsp ag,gsp antagonist,D2 ag,Six1-Eya2 inh,CtBP-E1A blk
O=C(CN1c2ccccc2Sc2ccccc21)NNC(=O)Nc1ccc(Cl)cc1,14,-7%[15.4 µM],-22%,7.0,-6,-22
O=C(CN1C(=O)NC2(CCOc3ccccc32)C1=O)NCCc1ccc(F)cc1 (configuration not stated),-4,-19%,-17%,-6.4,-1,3
COC(=O)c1ccc(NC(=S)N2CCC(C(N)=O)CC2)cc1,-2,-39%[inhibitor],4%,0.2,10,9
Cc1ccccc1SCC(=O)OCC(=O)Nc1sccc1C(N)=O,-18,-8%,-11%,1.9,-2,-13
COc1ccc(CNC(=O)C(C)OC(=O)c2cccs2)cc1 (configuration not stated),1,9%[15.4 µM],0%,-4.4,5,6
COCCCNC(=O)c1cn(C)c(=O)c2cc(OC)c(OC)cc12,-2,?,12%,1.2,1,-9
Cc1ccc(Sc2nc(C)cc(C)c2S(C)(=O)=O)cc1,-24,22%,-1%,-4.6,3,11
COc1cc2c(cc1OC)C(c1ccc([N+](=O)[O-])cc1)N(C(C)=O)CC2 (configuration not stated),2,-22%,-17%,8.7,-3,2
COCC1CCCCN1C(=O)c1ccc2nc(Cc3ccc(OC)c(OC)c3)oc2c1 (configuration not stated),-15,-21%,-19%,3.6,-3,5
C#CCSc1nnc(-c2ccc([N+](=O)[O-])cc2)o1,-1,-50%[inhibitor],0%,14,-1,.
O/N=C\c1ccccc1Oc1ccc(F)cc1,-7,14%[15.4 µM],-8%,-4.2,8,8
Cc1ccc(-c2cc3ccccc3nc2N2CCOCC2)cc1,6,7%,-15%,2.8,17,0
CCCCN1C(=O)C2C(c3ccc(OC)cc3O)NC(CC(C)C)(C(=O)O)C2C1=O (configuration not stated),-10,-8%,8.9µM*,-6.8,5,2
Cn1c(-c2ccc(CN3CCCCC3)o2)nc2ccccc21,-42,3%,1%[15.4 µM],-4.7,-7,-1
CCc1nnc(NC(=O)CCC(=O)N2CCN(CCOc3ccc(C)cc3)CC2)s1,-32,-31%,1%,2.8,1,2
CC[C@]12c3[nH]c4ccc(Cl)cc4c3CCN1C(=O)[C@@H](CC(=O)NCc1ccco1)C[C@@H]2C(=O)N1CCN(C(=O)c2ccco2)CC1,0,.,-11%,1.2,-4,-4
COC(=O)/C=C\C(C#N)(C#N)N=Cc1ccc(OC)cc1,6,3%,-4%,2.8,5,-5
CCOC(=O)[C@H]1[C@H]2COc3ccc(Cl)cc3[C@@H]2N2C(=O)CN(Cc3ccccc3)C(=O)[C@@]12C,-7,20%,-10%,0.5,-6,1

# 3 compounds from above, ordered by heavy-atom count, falling:
SMILES,D2 PAM,gsp ag,gsp antagonist,D2 ag,Six1-Eya2 inh,CtBP-E1A blk
CC[C@]12c3[nH]c4ccc(Cl)cc4c3CCN1C(=O)[C@@H](CC(=O)NCc1ccco1)C[C@@H]2C(=O)N1CCN(C(=O)c2ccco2)CC1,0,.,-11%,1.2,-4,-4
CCOC(=O)[C@H]1[C@H]2COc3ccc(Cl)cc3[C@@H]2N2C(=O)CN(Cc3ccccc3)C(=O)[C@@]12C,-7,20%,-10%,0.5,-6,1
COC(=O)/C=C\C(C#N)(C#N)N=Cc1ccc(OC)cc1,6,3%,-4%,2.8,5,-5
